Screens (PubChem)
HNF4A DNA FP = change in binding of human HNF4A to DNA, primary screen, biochemical, fluorescence polarization, FITC-DNA. 1 h. activity change, % at 10 µM. 0.3% of 360,000 active; in the data active means activity change above about 30%, passing the limit was not always enough;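 further: controls were the assay level and a saturating level of protein; the project sought stronger binding though the title names inhibitors; some compounds called inactive have numbers as strong as hits; positive values seem to mean higher polarization but the record does not say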
UCH37 DUB inh = inhibitors of human UCH37 deubiquitinase, primary screen, biochemical, Ub-AMC cleavage, fluorescence; Ubiquitin carboxyl-terminal hydrolase isozyme L5 (Homo sapiens), Q9Y5K5; purified proteasome/UCH37; inhibition, % (concentration not given with the values); 0.33% of 330,000 active; AID 588478, 2011;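 active means mean of two replicates above 20%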;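 further: 0% = compound-free wells with enzyme and 100% = wells lacking proteasome; stock transfer was 100 nL into about 20 µL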
Target sequence (Q9Y5K5 whole entry, looked up): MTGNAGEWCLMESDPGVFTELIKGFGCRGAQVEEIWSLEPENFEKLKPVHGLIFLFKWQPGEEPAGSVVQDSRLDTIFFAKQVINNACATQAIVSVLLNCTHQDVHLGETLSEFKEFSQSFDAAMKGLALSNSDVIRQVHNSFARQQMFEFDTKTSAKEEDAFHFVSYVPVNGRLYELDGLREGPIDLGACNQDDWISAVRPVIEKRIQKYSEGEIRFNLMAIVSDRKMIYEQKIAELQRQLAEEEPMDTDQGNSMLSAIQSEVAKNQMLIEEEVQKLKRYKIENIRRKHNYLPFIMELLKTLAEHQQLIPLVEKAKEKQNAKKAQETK
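Material: human UCH37 enzyme supplied as purified proteasome complex / Amount: 0.15 nM proteasome as dispensed / Buffer or medium: pH 7.4 Tris-HCl (50 mM) with ovalbumin, ATP-MgCl2, DTT / Times: preincubation 30 min, reaction 25 min, room temperature / Technique: AMC fluorescence from Ub-AMC cleavage, excitation 355 nm, emission 460 nm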
Vif A3G = inhibitors of Vif binding to APOBEC3G peptide, primary screen, biochemical, TR-FRET, GST-Vif 1-94, biotin-A3G peptide, dose response retest (AID 1117319); one-dose inhibition, %; IC50 in µM for titrated hits; TR-FRET GST-Vif / biotin-A3G peptide binding; higher % means a stronger effect; test concentration not given here; strong numbers were not always called active; 0.57% of 260,000 active; Virion infectivity factor (Human immunodeficiency virus type 1 group M subtype B (isolate …;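 active means above the screen mean plus three standard deviations and confirmed in dose response; inconclusive means results disagree or hit not tested in dose response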;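 further: Vif residues 1-94 fused to GST binding biotinylated APOBEC3G peptide 110-148; 0% = full assay without inhibitor and 100% = GST in place of GST-Vif; retest series ran down from 100 µM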
AF4-AF9 inh = inhibitors of AF4 peptide binding to AF9, primary screen, biochemical, AlphaScreen, biotin-AF4 peptide, FLAG-AF9, single point. Protein AF-9 (Homo sapiens), P42568. inhibition, % at 10 µM. 0.47% of 350,000 active. AID 651704, 2012;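 active means every replicate reaching a set inhibition limit, whatever the replicate mean, cut at about 25% in these data; inconclusive means mean inhibition reaches that limit but some replicates miss it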;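 further: 0% = plate neutral control median and 100% = total signal loss; the record names both 10 and 1 µM as test concentration; the first replicate is given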
Target sequence (P42568 whole entry, looked up): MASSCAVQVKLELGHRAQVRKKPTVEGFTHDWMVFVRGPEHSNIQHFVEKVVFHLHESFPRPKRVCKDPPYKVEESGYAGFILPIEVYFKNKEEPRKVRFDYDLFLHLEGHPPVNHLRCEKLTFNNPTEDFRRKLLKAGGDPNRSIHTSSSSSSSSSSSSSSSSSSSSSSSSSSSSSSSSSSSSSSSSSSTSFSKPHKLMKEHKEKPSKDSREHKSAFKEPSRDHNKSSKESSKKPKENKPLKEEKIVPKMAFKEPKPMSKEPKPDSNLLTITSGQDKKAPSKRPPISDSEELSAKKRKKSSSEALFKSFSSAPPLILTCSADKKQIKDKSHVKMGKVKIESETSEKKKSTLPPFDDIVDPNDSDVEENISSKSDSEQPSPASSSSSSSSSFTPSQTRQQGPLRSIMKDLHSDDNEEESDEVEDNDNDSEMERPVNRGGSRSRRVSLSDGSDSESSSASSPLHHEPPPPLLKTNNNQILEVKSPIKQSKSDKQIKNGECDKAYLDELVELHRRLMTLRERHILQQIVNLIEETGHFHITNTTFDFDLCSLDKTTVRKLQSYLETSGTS
E coli growth = E. coli growth inhibition, primary screen, OD600 | AID 1053175, 2014 | Escherichia coli growth, 23 h; hits give low values | OD600 absorbance (no concentration beside the values) | 0.21% of 330,000 active;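 active means OD600 absorbance below the run mean of sample wells minus 3.6 SD, in any replicate, cut at about 0.56 in these data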;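 further: stock transfer was 300 nL into about 60 µL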
RanGTP-Imp inh = inhibitors of RanGTP-importin-beta interaction, primary screen, biochemical, FRET, CFP-Ran, YFP-importin-beta, homogeneous | Ran GTPase (GTP-bound) - importin-beta complex | AID 2216, 2009 | inhibition, % (test concentration not listed) | cell-free CFP-Ran/YFP-importin-beta FRET ratio | 1.1% of 300,000 active;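 active means most replicates above 15%; inconclusive means exactly half above 15%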;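 further: 0% = DMSO wells and 100% = Ran loaded with GDP instead of GTP; wells of about 40 µL received 100 nL stock; the first replicate is given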
FGF22 binding = binders of human FGF22 protein, primary screen, FGF22 synaptogenesis inhibitor project, biophysical, thermal shift, single point; recombinant FGF22 thermal shift, SYPRO orange fluorescence; percent of sucrose octasulfate shift, DMSO zero; calls only at 9.99 µM; 1.5% of 340,000 active; AID 651658, 2012;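 active means melting point raised past a set limit in the mean and every replicate; inconclusive means no clear call; three in four hits are not shown here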
Target sequence (Q9HCT0 whole entry, looked up): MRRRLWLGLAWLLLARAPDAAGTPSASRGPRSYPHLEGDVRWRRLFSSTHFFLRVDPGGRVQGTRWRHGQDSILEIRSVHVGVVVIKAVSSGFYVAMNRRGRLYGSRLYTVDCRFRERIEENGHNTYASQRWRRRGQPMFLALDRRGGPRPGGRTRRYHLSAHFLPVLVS
* = called active by the depositor; i = inactive; u = inconclusive; x = not tested or not shown; & = joins results of further samples. Some of the compounds tested. The share of hits here may be higher or lower than overall.

SMILES	HNF4A DNA FP	UCH37 DUB inh	Vif A3G	AF4-AF9 inh	E coli growth	RanGTP-Imp inh	FGF22 binding
O=C(Cn1nc(-c2ccccc2)ccc1=O)Nc1ccc(N2CCN(C(=O)c3ccccc3)CC2)cc1	3.7	3.3	u	x	0.75	-4.2	x
COc1ccccc1-c1cc(C(=O)NC2CCCC2)no1	-1.0	2.6	u	-0.9	0.65	-0.9	i
COC(=O)c1nc(NC(=O)c2cc(OC)c(OC)c(OC)c2)n[nH]1	1.7	4.8	x	1.3	0.66	4.5	i
COc1ccc(OC(C)C(=O)Nc2cccc(OC)c2)cc1 (centres undefined)	-2.7	3.1	3%	x	0.73	-1.5	x
Cc1ccc(-n2c(-c3ccc(Cl)cc3Cl)n[nH]c2=S)cc1	-0.4	0.6	x	-14	0.66	u	i
O=C(O)CCCCCNS(=O)(=O)c1cccc2nsnc12	-1.1	6.0	2%	x	0.71	-0.1	x
CC(C)CCn1c(=O)c2ccccc2n2c(CN(C)Cc3ccccc3)nnc12	0.5	2.8	27%	x	0.7	-2.6	x
COc1ccc(NCc2nnc(SCCN3CCCCC3)n2-c2ccc(C)cc2)cc1	0.9	3.6	-4%	17	0.7	0.1	i
CCOC(=O)C1CCN(CC(O)COCc2ccccc2)CC1 (centres undefined)	1.3	4.0	-3%	0.6	0.68	2.6	i
Cc1ccc(CN(C(=O)c2ccccc2[N+](=O)[O-])C2CCS(=O)(=O)C2)o1 (centres undefined)	5.7	0.9	-7%	-1.2	0.65	4.8	i
COC(=O)CNC(c1ccccc1)c1cc(C)ccc1NS(=O)(=O)c1ccc(C)cc1 (centres undefined)	-3.2	4.5	-3%	x	0.68	-1.3	x
CN(C(=O)Nc1ccc(Cl)cc1Cl)C1CCCC1	0.5	1.6	2%	-0.3	0.71	3.0	i
CCCCNc1c(N2CCN(C(=O)OCC)CC2)c(=O)c1=O	-0.8	9.9	2%	1.3	0.73	7.7	i
CCCSc1nnc(Cc2cc(=O)[nH]c(=O)[nH]2)n1-c1cc(C)ccc1C	-3.6	4.3	-3%	x	0.67	-2.8	x
CCOc1cccc(-c2nnc3sc(-c4ccco4)nn23)c1	9.1	-1.0	-4%	x	0.75	-0.5	x
C#CC(C)(O)C1CC(CC(=O)O)C1(C)C (centres undefined)	1.7	0.0	-5%	x	0.73	x	x
CCOc1cc(C(=O)Nc2ccncc2)cc(OCC)c1OCC	-1.0	3.6	-1%	-0.8	0.68	-2.5	i
Cc1ccc(N2NC(=O)/C(=C\c3cc4c(cc3[N+](=O)[O-])OCO4)C2=O)cc1C	-3.6	11	28%	x	0.69	25*	x
CC1(C(O)(C#CC[N+]2(C)CCCCC2)c2ccccc2)CCCC1 (centres undefined)	3.4	2.2	4%	-1.3	0.66	-3.9	i
C[C@H](NC(=O)c1nc[nH]c1C(=O)N[C@@H](Cc1ccccc1)C(=O)OC(C)(C)C)C(=O)OCc1ccccc1	-1.6	0.9	x	3.7	x	-1.5	i

One compound at a time, from the list above. Values in the order: HNF4A DNA FP, UCH37 DUB inh, Vif A3G, AF4-AF9 inh, E coli growth, RanGTP-Imp inh, FGF22 binding
C#CC(C)(O)C1CC(CC(=O)O)C1(C)C (centres undefined) is listed as 1.7, 0.0, -5%, x, 0.73, x, x
C[C@H](NC(=O)c1nc[nH]c1C(=O)N[C@@H](Cc1ccccc1)C(=O)OC(C)(C)C)C(=O)OCc1ccccc1 is listed as -1.6, 0.9, x, 3.7, x, -1.5, i
COC(=O)CNC(c1ccccc1)c1cc(C)ccc1NS(=O)(=O)c1ccc(C)cc1 (centres undefined) is listed as -3.2, 4.5, -3%, x, 0.68, -1.3, x
CCOc1cc(C(=O)Nc2ccncc2)cc(OCC)c1OCC is listed as -1.0, 3.6, -1%, -0.8, 0.68, -2.5, i
CC1(C(O)(C#CC[N+]2(C)CCCCC2)c2ccccc2)CCCC1 (centres undefined) is listed as 3.4, 2.2, 4%, -1.3, 0.66, -3.9, i

Continued.
SMILES	HNF4A DNA FP	UCH37 DUB inh	Vif A3G	AF4-AF9 inh	E coli growth	RanGTP-Imp inh	FGF22 binding
FC(F)(F)c1ccccc1Cc1c(-c2ccco2)nc2ccc(Cl)cn12	6.1	x	x	3.8	x	x	i
COc1ccc(C(=S)N2CCC(C(N)=O)CC2)cc1Br	5.6	0.9	2%	-2.0	0.68	2.0	i
CC(=O)Nc1ccc(/C=N/OCC(=O)Nc2ccc(C)cc2)cc1	-1.9	x	2%	x	x	4.5	x
COc1ccc(OCc2nn3c(-c4ccco4)nnc3s2)cc1	-2.1	2.1	-8%	x	0.74	2.2	x
COc1ccc(CCNC(=O)CSc2nc(-c3ccco3)cc(C(F)(F)F)n2)cc1OC	-3.0	4.1	-4%&-8%	-37	0.69	6.4	i
CC(=O)N1CCN(c2nc3ccc(Br)cc3s2)CC1	-0.7	1.3	10%	-0.6	0.7	0.9	i
COc1ccc(C(=O)N(CCCO)C(C)C(=O)NC2CCCCC2)cc1OC (centres undefined)	0.6	-0.3	-8%	x	0.65	-0.9	x
C[C@H](CO)N1C[C@H](C)[C@@H](CN(C)S(=O)(=O)c2ccc(-n3cccn3)cc2)OCc2cn(nn2)CCCC1=O	3.0	x	-8%	1.6&-1.7	x	x	i
Cc1cccc(N2CCN(C(c3ccccc3)c3nnnn3CC3CCCO3)CC2)c1C (centres undefined)	1.6	x	18%	x	0.7	3.0	x
O=c1nc2n(Cc3ccccc3)c3ccccc3cc-2c(=O)[nH]1	x	-245	2%	-0.3	0.66	89*	i
CC(C)C(c1nnnn1Cc1ccc2c(c1)OCO2)N1CCN(c2ccccc2)CC1 (centres undefined)	0.3	3.1	11%	x	0.74	3.8	x
C[C@@H]1CN([C@@H](C)CO)C(=O)CCCn2nncc2CO[C@@H]1CN(C)S(C)(=O)=O	-3.3	x	0%	-0.2&-2.2	x	x	i
Fc1ccc(-c2n[nH]c(=S)n2CC2CCCO2)cc1 (centres undefined)	0.0	x	-4%	x	x	u	x
COc1ccc(-c2c(C)nn3c(-c4ccccc4)cc(C)nc23)cc1	4.0	-1.2	-1%	27*	0.8	-4.3	i
O=C1C=C(Nc2ccccc2)C(=O)c2ccccc21	3.4	6.2	1%	2.0	0.7	3.1	i
CCOc1ccc(C(=O)C(C)OC(=O)Cn2c(C)csc2=O)cc1 (centres undefined)	-1.7	2.9	6%	-1.2	0.67	-0.9	x
O=C(N[C@@H](Cc1ccccc1)C(=O)OCc1ccccc1)c1nc[nH]c1C(=O)N1CCN(c2ccccc2)CC1	12	2.2	24%	-10	x	-2.4	i
Cn1c(SCC(=O)NCc2ccc(F)cc2)nc2ccccc21	2.1	0.7	3%	x	0.68	8.1	x
O=C(CCNC(=O)c1ccco1)Nc1ccc(C(F)(F)F)cc1	0.2	1.4	x	-4.0	0.67	0.4	i
COc1ccc(-c2nnc(SCc3nnc(-c4cccs4)o3)n2CC2CCCO2)cc1 (centres undefined)	-0.1	1.2	18%	1.8	0.63	-1.0	i
COc1ccc(NS(=O)(=O)c2cn(C)c(=O)n(C)c2=O)c(OC)c1	-2.1	2.1	-1%	-5.3	0.69	1.4	i
O=CN1CCN(C2CC(=O)N(c3ccc(Br)cc3)C2=O)CC1 (centres undefined)	1.8	3.5	22%	x	0.76	-1.2	x
CC12CCC(=O)N1C(C(=O)Nc1cccc(S(=O)(=O)N3CCCCCC3)c1)CS2 (centres undefined)	-1.6	2.4	5%	-15	0.68	2.6	x
Nc1ccc(Oc2ccc3nc(-c4ccccc4)c(-c4ccc([N+](=O)[O-])cc4)nc3c2)cc1	-2.5	8.6	10%	x	0.78	u	x
CCn1c(SCc2nc3ccccc3[nH]2)nnc1-c1cccnc1	5.1	0.3	0%	x	0.7	u	x
C=CCNC(=S)N1CCN(c2cc3c(cc2F)c(=O)c(C(=O)O)cn3CC)CC1	1.3	-18	-17%	-1.7	0.076*	-4.7	i
O=c1c2c(nc3c(-c4ccc(Cl)cc4)c[nH]n13)CCCC2	1.2	-11	14%	x	0.7	-2.0	x
COc1cc(S(=O)(=O)NCc2ccccc2)ccc1-n1cnnn1	1.1	2.3	x	1.6	0.68	0.0	i
NC(=O)c1ccc(NC(=O)COC(=O)CCCN2C(=O)c3cccc4cccc(c34)C2=O)cc1	1.6	-125	u	-0.1	0.73	-4.3	x
CCS(=O)(=O)N1Cc2ccccc2CC1C(=O)Nc1nc2ccc(C)cc2s1 (centres undefined)	2.8	-0.2	24%	2.7	0.67	-1.8	i
Nn1c(SCC(=O)Nc2ccc3c(c2)OCCO3)nnc1-c1cccnc1	-0.1	-0.3	-1%	-0.5	0.7	0.6	i
CC(C)(C)c1ccc(NC(=O)N2CCN(c3ccc([N+](=O)[O-])cn3)CC2)cc1	-2.1	-0.7	71%	x	0.72	-0.4	i
COCCn1c(SCc2nc3ccccc3c(=O)[nH]2)nnc1-c1ccncc1	-1.8	-0.3	16%	x	0.66	-0.5	x
CCCCn1c(N)c(N(Cc2ccccc2OC)C(=O)C(C)C)c(=O)[nH]c1=O	0.0	5.6	2%	-2.3	0.69	0.6	i
CN1CCN(S(=O)(=O)c2ccc(NC(=O)C3CCCCC3)cc2)CC1	0.5	-1.6	-4%	x	0.73	5.2	x
CCOc1ccccc1NC(=O)Nc1ccon1	1.1	0.3	0%	-20	0.7	5.7	i
CC1CCCCN1c1nnc(N)s1 (centres undefined)	-1.6	3.0	6%	x	0.71	-3.2	x
COc1ccccc1N1CCN(CCCNc2c(C)c(=O)n(C)c(=O)n2C)CC1	-1.6	1.9	x	-1.2	0.65	4.9	i
C#CC(C)OC(=O)C(C)NC(=O)c1ccccc1 (centres undefined)	2.1	-0.9	x	-4.6	0.66	-0.9	i
O=S1(=O)CC(N2CCCC2)CN1C1CCCC1 (centres undefined)	5.8	x	x	-4.1	x	x	i
Cc1cccnc1NC(=O)c1ccc(Cl)c(S(=O)(=O)N2CCCCCC2)c1	0.8	3.4	x	0.9	0.7	1.2	i
CCOc1cccc2cc(C(=O)NCc3ccc(Cl)cc3)c(=N)oc12	-1.2	-2.8	x	-6.7	0.71	-2.8	i
COC(=O)c1ccc(-n2nnnc2SCC(=O)N2CCCCC2)cc1	-1.8	1.6	-3%	x	0.66	u	x
COc1c(F)c(F)c(C(=O)Nc2ccc(N3CCN(C(C)=O)CC3)c(Cl)c2)c(F)c1F	3.5	0.6	1%	x	0.66	-1.8	x
CCOc1ccccc1OCCCC(=O)Nc1ccc(OC)nc1	-2.2	1.9	7%	x	0.71	2.6	x
COc1ccc(N(CC(=O)NC2CC3CCC2C3)S(=O)(=O)c2ccc(C)cc2)cc1OC (centres undefined)	0.4	-0.3	x	-12	0.7	-0.3	i
COc1ccc(-c2ocnc2C(=O)NCc2nn(-c3ccccc3)nc2C)cc1	-3.5	-3.2	x	x	0.62	0.7	i
CC(=O)OC[C@@H]1CN(Cc2ccccc2)C[C@H](n2cnc3c(NC(C)C)ncnc32)O1	1.4	x	x	-8.3	x	x	i
CC1Cc2ccccc2N1C(=O)COC(=O)CNC(=O)c1ccc(Br)o1 (centres undefined)	3.7	0.7	0%	x	0.75	-2.9	x
O=C(NCCc1ccc(Cl)cc1)C1CCN(c2cnccn2)CC1	0.5	-20	-3%	x	0.68	-0.7	x
COc1ccc(S(=O)(=O)N2CCc3ccccc32)cc1OC	0.7	1.3	-1%	-3.6	0.65	u	i
